Bioassay records: PubChem BioAssay, National Center for Advancing Translational Sciences (NCATS)
VACV Venus inh – qHTS for Stage-Specific Inhibitors of Vaccinia Orthopoxvirus: Venus Reporter Primary qHTS. Potency, µM (titrated, usually from 36.5 µM), for the others: at the highest dose activity change, negative = inhibition, most hits filed as inhibitors. AID 720580, 2013. actives 0.46% (n = 330,000). Vaccinia virus Venus reporter expression, fluorescence; active means well fitted inhibition curve with a large enough effect; inconclusive means small, poorly fitted or top-dose-only effect; inactive means no such curve, though single readings can be large or run the other way; tested in A549 cells; further: nearly all actives have a fitted effect of over 30% in size; inactives centre near -10
Vaccinia mCherry – qHTS for Stage-Specific Inhibitors of Vaccinia Orthopoxvirus: mCherry Reporter Primary qHTS | Vaccinia virus mCherry reporter infection, fluorescence; about a quarter of the inactives have no number | Potency, µM (highest dose often 36.5 µM), for the others: at the highest dose activity change, negative = inhibition, usual class: inhibitors | actives 0.63% (n = 310,000) | AID 720579, 2013; active = well fitted inhibition curve with a large enough effect; inconclusive = small, poorly fitted or top-dose-only effect; inactive = no such curve, though single readings can be large or run the other way; tested in A549 cells; further: nearly all actives have a fitted effect of over 35% in size; inactives centre near -10
Starred values were filed as active, the others as inactive; i = inactive; ? = inconclusive; nt = no result given; [ ] = remark or other dose. On the % scale 0 is the no-effect control and ±100 the full control effect; potency means the concentration at half of the fitted maximal effect.

SMILES	VACV Venus inh	Vaccinia mCherry
Cc1sc(NC(=O)c2ccccc2)c(C(c2ccccn2)N2CCN(CCO)CC2)c1C (configuration not stated)	?	?
COc1cccc(CN2CCCN(CC(=O)Nc3ccc4c(c3)OCCO4)S2(=O)=O)c1	11.9%	-2.8%
O=c1c2c(nc3cc(-c4cccc(F)c4)[nH]n13)CCC2	-3.9%	i
Cc1ccc(NC(=O)c2cccs2)cc1[N+](=O)[O-]	-16.3%	-14.1%
COc1ccc(-c2coc3cc(O[C@@H]4O[C@H](CO)[C@@H](O)[C@H](O)[C@H]4O)c(OC)cc3c2=O)cc1	-6.2%	i
Cc1cccc(NC(=O)C2CCN(S(=O)(=O)c3cccc4cccnc34)CC2)n1	-13.1%	i
CC(C)C(N)C(=O)OCCOCn1cnc2c(=O)[nH]c(N)nc21 (configuration not stated)	-10.5%	-5.5%
COC(=O)c1sccc1NC(=O)CSCC(=O)O	-5.6%	-14.3%
COc1ccc(CNC(=O)CSc2nc3ccsc3c(=O)n2Cc2ccccc2Cl)cc1	11.6%	14.6%
CCCCNC(=O)c1cnc2sc(N3CCCCCC3)nn2c1=O	-11.6%	i
CCCCCC(=O)N1C[C@H](O)[C@@H](n2cc(COC(=O)c3ccccc3)nn2)C[C@@H]1c1ccc(Cl)cc1	-14.7%	-13.9%
Cc1nn2c(=O)cc(COC(=O)Cc3ccccc3)nc2s1	-2.0%	4.4%
CCOC(=O)c1cc(C)n(CC2CCC(C(=O)Nc3ccc(OCC)cc3)CC2)c1C (configuration not stated)	-23.5%	-21.8%
COc1ccc(-c2c(-c3cc(OC)cc(OC)c3)n(C)c3ccc(Br)cc23)cc1	0.5%	19.1%
Cc1cccc(N2C(=S)NC3c4ccccc4OC2(C)C3C(=O)N(C)C)c1 (configuration not stated)	-2.5%	-9.7%
Nc1nc2n(n1)C(c1c(F)cccc1Cl)CC(c1ccc(F)cc1)N2 (configuration not stated)	-9.1%	-8.9%
COc1cccc(CNC(=O)CN2C(=O)CSc3c2c(C)nn3-c2ccccc2)c1	-6.6%	9.1%
Cc1nn(C)cc1CN(C)C(=O)c1sc2cccc(Cl)c2c1Cl	?	nt
CC1=C(C(=O)N(C(C)C)C(C)C)CC(CC(=O)NC2CCCC2)C(=O)N1Cc1ccc(C(C)(C)C)cc1 (configuration not stated)	-7.7%	-4.8%
CCSc1nn(CC(=O)Nc2cccc(CC)c2)c(N)c1S(=O)(=O)c1ccccc1	-24.6%	-14.6%
NS(=O)(=O)c1ccc(CNC(=O)Cc2c(F)cccc2Cl)cc1	5.5%	-7.6%
COc1ccccc1OCC(=O)N(Cc1nnc(-c2ccccc2Cl)o1)C1CC1	-7.8%	i
CCOC(=O)c1c(C)[nH]c(C)c1C(=O)COC(=O)CNC(=O)c1ccc(OCC)cc1	-13.6%	-14.6%
COc1ccc(-c2csc(C(NC(C)=O)c3ccccc3)n2)cc1 (configuration not stated)	-0.5%	i
CN(C)c1cccc(C(=O)OCC(=O)NC(=O)NCc2ccccc2)c1	1.0%	-1.7%
N#Cc1c(N)sc2c1CCN(C(=O)OCc1ccccc1)C2	-6.4%	-1.7%
COC(=O)[C@@]1(Cc2ccc(F)cc2)[C@H]2c3cc(C(=O)N4CCCC4)n(CCc4c[nH]c5ccccc45)c3C[C@H]2CN1C(=O)c1ccccc1	?	?
Cc1cccc(NC(=O)CSCC(=O)Nc2cc(S(=O)(=O)N3CCOCC3)ccc2N2CCCC2)c1	-12.1%	i
O=C(NNC(=O)c1ccccc1-c1ccccc1C(=O)O)c1ccccc1	5.1%	i
CCCCCCCCN1C(=O)[C@H](CC(=O)NCCc2ccccc2OC)C[C@@]2(C(=O)OC)CCCCC=C12	-13.6%	-0.8%
CC1(C)Oc2ccc(C(=O)NC3CCCCC3)cc2N(CC#N)C1=O	0.0%	i
CC(C)(C)NC(=O)c1cnn(-c2ccccc2)c1C1CCN(C(=O)OC(C)(C)C)CC1	-10.6%	-18.7%
CC(C)NC(=O)c1cc2c(=O)n3ccccc3nc2s1	-10.9%	i
NS(=O)(=O)c1ccc(NC(=O)CN2CCN(c3ccc(F)cc3)CC2)cc1	-16.1%	-6.7%
CCOC(=O)c1ccc(NC(=O)C2CC(=O)Nc3nc4ccccc4n32)cc1 (configuration not stated)	-4.1%	i
COc1cccc(-c2nc3c(c(SCC(=O)Nc4cc(C)ccc4C)n2)Cc2c(CO)cnc(C)c2O3)c1	-8.8%	-12.0%
Cc1oc2ncn(CC(C)C)c(=O)c2c1C(=O)NCc1cccc(Cl)c1	0.8%	-14.3%
Cc1ccc(S(=O)(=O)NC(=O)COc2ccc([N+](=O)[O-])cc2)cc1	-7.6%	i
CCCSc1nnc(-c2c[nH]c3ccccc23)n1C	-13.0%	-28.3%
CC(=O)Nc1ccc2nc(SCC(=O)N3CCOCC3)sc2c1	-2.7%	i

Taken from above.
`N#Cc1c(N)sc2c1CCN(C(=O)OCc1ccccc1)C2` | VACV Venus inh = -6.4%
`CC(C)(C)NC(=O)c1cnn(-c2ccccc2)c1C1CCN(C(=O)OC(C)(C)C)CC1` | VACV Venus inh = -10.6%
`Cc1oc2ncn(CC(C)C)c(=O)c2c1C(=O)NCc1cccc(Cl)c1` | Vaccinia mCherry = -14.3%
`CCSc1nn(CC(=O)Nc2cccc(CC)c2)c(N)c1S(=O)(=O)c1ccccc1` | Vaccinia mCherry = -14.6%
`COc1ccc(-c2csc(C(NC(C)=O)c3ccccc3)n2)cc1` (configuration not stated) | VACV Venus inh = -0.5%
`O=c1c2c(nc3cc(-c4cccc(F)c4)[nH]n13)CCC2` | VACV Venus inh = -3.9%

(listing goes on)
SMILES	VACV Venus inh	Vaccinia mCherry
CCN(c1ccccc1)c1nnc(NC(=O)Nc2cccc(Cl)c2C)s1	-19.1%	-21.6%
O=C(c1ccccc1F)N(Cc1cc2cc3c(cc2nc1N1CCOCC1)CCC3)CC1CCCO1 (configuration not stated)	-7.0%	-15.2%
Cc1ccc(C(=O)CSc2nnc(CNc3ccc(C)cc3C)o2)cc1	-16.1%	-21.7%
Cc1ccc(S(=O)(=O)N2C[C@H]3[C@H]4C(=O)N(c5ccccc5)C(=O)[C@H]4C[C@H](OC(=O)NCc4ccccc4)[C@@]3(O)C2)cc1	-10.8%	i
O=C(N/N=C/c1cccnc1)c1cccs1	1.0%	-18.5%
CCN(CC)Cc1c(C(=O)OC(C)C)nnn1-c1nonc1N	-9.6%	nt
COC(=O)c1ccc(COC(=O)C2CCN(S(=O)(=O)c3c(Cl)cccc3Cl)CC2)o1	-4.7%	-8.5%
CC1=CCC2(CO)COC(c3ccccc3O)C1C2 (configuration not stated)	-13.4%	-1.9%
Cc1ccc2c(=O)c(C(=O)c3cccc(Cl)c3)cn(CC(=O)Nc3ccc4c(c3)OCCO4)c2n1	-5.0%	-24.9%
CCOC(=O)C1=C(C)NC(=O)NC1c1c(C)nn(-c2ccccc2)c1Cl (configuration not stated)	-25.3%	nt
COc1ccc(-c2cc(C(F)(F)F)n3nc(C)cc3n2)cc1	-6.6%	i
Cc1cc(C)cc(OCC(=O)Nc2cccc(-c3nnc(-c4ccco4)o3)c2)c1	0.4%	-11.4%
COc1ccc(C(=O)N2CCC(n3c(C)nc4cc(F)ccc43)CC2)cc1	-4.0%	i
CCC(C)/C(C)=N/NC(=O)c1ccccc1OCCOc1ccccc1 (configuration not stated)	-5.8%	-1.5%
COc1ccc(/C=c2\s/c(=C(/C#N)C(=O)NCc3ccco3)n(-c3ccccc3)c2=O)cc1	4.8%	i
CC(=O)c1ccc(NC(=O)Cc2ccsc2)cc1	?	?
Oc1ccc(C[C@H]2CN([C@@H](Cc3ccc(O)cc3)CN3CCC[C@@H]3CN3C(=S)NC[C@@H]3Cc3ccccc3)C(=S)N2CCc2ccccc2)cc1	-28.4%	-29.7%
COc1ccc(C(=O)NC2CC2)cc1OC1CCN(Cc2ccc(F)cc2)CC1	-8.7%	i
CCCC(c1nnnn1CC1CCCO1)N1CCN(c2cc(Cl)ccc2C)CC1 (configuration not stated)	?	-28.6%
COc1cc(C(=O)NNC(=O)c2ccccc2Br)ccc1OCC(=O)N1CCOCC1	-7.0%	i
Cc1ccc(CSC2=Nc3ccccc3C3=NC(CC(=O)NCc4ccc5c(c4)OCO5)C(=O)N23)cc1 (configuration not stated)	-10.8%	-24.1%
Oc1ccccc1C=NNc1nc2ccccc2s1	-29.3%	?
OCC(CO)c1cnnc2ccccc12	-8.2%	-7.5%
CCN(CC)S(=O)(=O)c1ccc(/C=C/C(=O)Nc2ccc(Br)cc2F)cc1	-27.6%	-12.8%
O=C1CC(C(=O)O)S/C(=N\NC(=O)c2ccc(F)cc2)N1 (configuration not stated)	2.5%	-2.1%
CS(=O)(=O)c1ccc(-c2nn[nH]n2)cc1	-7.0%	i
Cc1nccn1CCOc1ccc(Cl)cc1	-18.7%	i
CCOC(=O)/C=C1/SCC(=O)N1CC(=O)Nc1cccc(F)c1	27.8%	-4.6%
O=[N+]([O-])c1ccc(CN2CCN(c3ccc(Cl)cc3)CC2)o1	-13.5%	-18.0%
Cc1ccc(C(=O)NC(=S)Nc2ccccc2N2CCCC2)cc1[N+](=O)[O-]	-14.4%	-14.4%
Cc1ccc(C(c2sc3ncnn3c2O)N2CCCCC2)cc1 (configuration not stated)	-21.1%	-4.0%
Cc1ccc2c(c1)sc1nc(=O)ccn12	-9.5%	i
O=c1[nH]c(=S)n(C2CC2)c(O)c1/C=N/N1CCOCC1	-1.2%	-20.0%
COc1ccc(NC(=O)NC2(C(=O)N3CCOCC3)CCCCC2)cc1	2.3%	-9.5%
COc1cc(/C=N/NC(=O)Nc2ccccc2)ccc1OC(C)=O	0.8%	-12.1%
O=C(c1ccc2c(c1)N(Cc1ccccc1)C(=O)c1ccccc1S2(=O)=O)N1CCc2ccccc21	-15.5%	-5.3%
Cc1cc(F)ccc1-n1nnc(C(N)=O)c1C	1.3%	-1.7%
Fc1ccccc1/C=N/n1c(COc2ccccc2)n[nH]c1=S	-9.5%	-3.3%
CC(C)Cc1nnc(NC(=O)CCS(=O)(=O)c2ccc(Cl)cc2)s1	?	?
CCOC(=O)c1nnn2c1nc(N1CCN(C)CC1)c1ccccc12	-9.6%	-15.4%

2 entries from above, with two lines to a compound.
The line under a structure holds: VACV Venus inh | Vaccinia mCherry
CS(=O)(=O)c1ccc(-c2nn[nH]n2)cc1
→ -7.0% | i
Cc1nccn1CCOc1ccc(Cl)cc1
→ -18.7% | i

Following part:
SMILES	VACV Venus inh	Vaccinia mCherry
COCc1cc(CN2CCN(CCCc3ccccc3)C(CCO)C2)ccc1OC (configuration not stated)	-8.1%	-36.7%
CCC(Cc1ccccc1)NC(=O)CCNS(=O)(=O)c1cc(Br)cnc1N (configuration not stated)	-19.3%	i
CS(=O)CSc1nc2c(cc1C#N)CCCC2 (configuration not stated)	-12.6%	-6.5%
COC(CNC(=O)CN1CCN(Cc2ccc(F)cc2Cl)C1=O)OC	4.1%	i
Cc1cc(C)c(OCC(=O)N(Cc2ccc(N(C)C)cc2)Cc2ccco2)c(C)c1	-11.2%	-14.9%
O=C(NC1(O)C(=O)c2ccccc2C1=O)c1ccccc1	7.2%	-11.8%
O=C(CN(CC1CCCO1)C(=O)CCC(=O)Nc1nccs1)NCC1CCCO1 (configuration not stated)	-10.5%	nt
Cc1ccc(Nc2nc(N)nc(CSc3nc4ccccc4s3)n2)cc1	?	?
CCOC(=O)c1ccc(NC(=O)CSc2ccc(-c3sc(C)nc3C)nn2)cc1	-18.4%	i
O=C(CCc1c[nH]c2ccccc12)OCc1ccc(Br)cc1	-8.4%	-11.0%
CCc1noc(C)c1C(=O)Oc1ccc(N(C)S(=O)(=O)c2ccc(C)c(C)c2)cc1	-18.6%	i
CCc1nc2c(OCC(=O)C(C)(C)C)cccn2c1N(C)C(=O)C1CC1	-6.1%	i
COc1cc2c(-c3ccc(O)cc3)nc3c(c(C)nn3-c3ccccc3)c2cc1OC	-27.2%	-8.2%
O=C(Nc1ccc(N2CCN(c3ccc(F)cc3)CC2)c(C(=O)O)c1)c1cccs1	-1.0%	8.3%
Cc1cc(C(=O)CSc2nnc(-c3cccs3)n2Cc2ccccc2)c(C)n1C	-11.4%	-20.5%
CC(NC(=O)C1CCN(C(=O)N2CCOc3ccc(Cl)cc32)CC1)c1ccccc1 (configuration not stated)	-14.5%	-5.9%
Cc1ccc(Sc2ncccc2C(N)=O)cc1	-10.9%[7.34 µM]	i[7.34 µM]
COc1cc(OC)cc(C(=O)NCCn2ccc3ccccc32)c1	-2.9%	-16.2%
NC(=O)C1CCN(CC(O)COc2ccc(-c3ccccc3)cc2)CC1 (configuration not stated)	-10.4%	6.2%
CCCCc1ccc(/C(C)=N/NC(=O)C2CCCC2)cc1	-15.0%	?
NS(=O)(=O)c1ccc(NC(=O)CSc2nnc(NC3CC3)s2)cc1	-12.6%	-0.8%
CCOc1ccc(-c2nnc(N(CC)C(=O)C3CCC3)s2)cc1	-13.9%	i
Cc1noc(C)c1S(=O)(=O)N1CCC(C(=O)Nc2ccc(OC(F)(F)F)cc2)CC1	?	?
CC(=O)Nc1ccccc1-c1nn[nH]n1	-10.7%	nt
Cc1cc(NS(=O)(=O)c2ccc(NC(=O)c3ccc(Br)o3)cc2)nc(C)n1	-6.0%	-6.9%
N#C/C(=C\c1cccnc1)C(=O)Nc1ccccc1	5.4%	-1.0%
NS(=O)(=O)c1ccc(NC(=O)COC(=O)c2ncc(Cl)c(Cl)c2Cl)cc1	-5.5%	-11.5%
O=C(OCc1cc(-c2ccccc2)no1)c1ccc2ccccc2n1	-5.1%	-11.6%
CCOc1ccccc1CNC(=O)c1ccc2nc(CCc3ccccc3)oc2c1	-29.0%	?
